Source: PubChem BioAssay
TRPML1 agonist: human mucolipin-1 channel agonism. TRPML1-expressing cells, Ca2+ dye fluorescence, FDSS; host cell line not named in the record; reference of the full effect not given here. activation, % (test concentration not listed). Q9GZU1. 410,000 compounds, 0.12% hits; in the data active = activation above about 50%; inconclusive = about 30% to 50%; inactive = below about 30%; further: 0% is about no effect; the text of the record puts the active cut at 80%
Target sequence (Q9GZU1 whole entry, looked up): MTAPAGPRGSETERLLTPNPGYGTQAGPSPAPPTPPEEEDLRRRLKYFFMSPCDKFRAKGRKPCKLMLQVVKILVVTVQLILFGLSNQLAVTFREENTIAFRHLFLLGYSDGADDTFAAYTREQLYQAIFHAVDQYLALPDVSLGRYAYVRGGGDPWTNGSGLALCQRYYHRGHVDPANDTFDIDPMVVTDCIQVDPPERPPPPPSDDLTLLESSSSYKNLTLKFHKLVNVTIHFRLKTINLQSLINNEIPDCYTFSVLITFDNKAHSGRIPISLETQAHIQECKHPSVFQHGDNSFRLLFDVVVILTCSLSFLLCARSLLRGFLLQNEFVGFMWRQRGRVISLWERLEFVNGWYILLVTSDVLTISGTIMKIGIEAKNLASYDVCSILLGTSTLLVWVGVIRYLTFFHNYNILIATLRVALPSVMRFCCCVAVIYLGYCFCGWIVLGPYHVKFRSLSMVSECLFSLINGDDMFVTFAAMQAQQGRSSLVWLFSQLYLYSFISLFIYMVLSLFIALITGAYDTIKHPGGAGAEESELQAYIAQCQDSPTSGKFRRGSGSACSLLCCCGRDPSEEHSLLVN
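Tet-induced TRPML1-DL cells, 1,500 per well, cultured overnight, were loaded with a no-wash Ca2+ dye for 45–90 min. Calcium fluorescence was recorded on the FDSS for 110 s after compound addition, before the EC80 agonist (4 uM 54-4) was added.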
TRPML1 inh: blocks the human TRPML1 channel; TRPML1-inducible cells, Ca2+ dye fluorescence, FDSS; active compounds read low; inhibition of EC80 agonist-evoked calcium signal; 390,000 compounds, 0.02% hits; Q9GZU1; activity change, negative = inhibition, % (concentration not given with the values); in the data active means activity change below about -50%; inconclusive means about -30% to -50%; inactive means above about -30%;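 further: stimulus is agonist 54-4 at its EC80 concentration; on the % scale 0 is the no-effect control and ±100 the full control effect; the text of the record puts the active cut at -80%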
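Calcium fluorescence in TRPML1-DL cells induced overnight with Tet: a 110 s read after compound pin addition, then a 110 s antagonist read after challenge with 54-4 at 4 uM final (EC80).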
CtBP-E1A inh: blocks the CtBP interaction with E1A. AlphaScreen GST-E1A/His-CtBP binding, 1536-well; active compounds read low; control for the full effect not named in the record. activity change, % (test concentration not listed). 340,000 compounds, 0.49% hits; in the data active means activity change below about -65%; inconclusive means about -30% to -65%; inactive means above about -30%; further: on the % scale 0 is the no-effect control and ±100 the full control effect
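AlphaScreen with 125 nM GST-E1A and 125 nM His-CtBP (5X stocks) in Tris pH 8.0, 300 mM NaCl, BSA, Tween 20, TCEP. Compounds preincubated 2 h at 37 deg C, then glutathione donor/nickel acceptor beads added for 1 h at 37 deg C in dark.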
TRPV1 potentiator: potentiators of human vanilloid receptor 1 (TRPV1); TRPV1-expressing cells, Fluo-8 calcium influx, capsaicin EC20 potentiation; host cell line not named in the record; control for the full effect not named in the record; AID 540277; Q8NER1; potentiation, % at 8.33 µM; 320,000 compounds, 0.02% hits; active means potentiation above 80%; inconclusive means 30% to 80%; inactive means below 30%; further: 0% is about no effect
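TRPV1-expressing cells were cultured overnight at 35.5C and loaded with Fluo-8 calcium dye for 40 to 90 min at room temperature. After a 10 s baseline, compound was added and calcium influx was read kinetically for 3 min (ex 480/em 520 nm).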
Six1-Eya2 blk: Six1/Eya2 interaction inhibition; Q15475+O00167; AID 651725; 360,000 compounds, 0.56% hits; activity change, % (no concentration beside the values); AlphaScreen GST-Six1/His-Eya2 binding, biochemical; active compounds read low; control for the full effect not named in the record; in the data active = activity change below about -65%; inconclusive = about -30% to -65%; inactive = above about -30%; further: on the % scale 0 is the no-effect control and ±100 the full control effect
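GST-Six1 + His-Eya2 (5X stock: 250/500 nM); Tris pH 8.0, 300 mM NaCl, 0.05% BSA, 0.02% Tween 20; GSH donor/Ni acceptor beads; 1 h 37 °C dark; AlphaScreen readout.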
D2 PAM: positive allosteric modulators of human D2 dopamine receptor | P14416 | DiscoveRx D2 beta-arrestin cells, luminescence, 90 min; 100% = 57 uM dopamine signal | potentiation, % (concentration not given with the values) | 360,000 compounds, 0.23% hits; active = potentiation of 50% or more; inconclusive = 30% to 50%; inactive = 30% or less;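 further: tested on top of an EC20 dose of dopamine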
Target sequence (P14416 whole entry, looked up): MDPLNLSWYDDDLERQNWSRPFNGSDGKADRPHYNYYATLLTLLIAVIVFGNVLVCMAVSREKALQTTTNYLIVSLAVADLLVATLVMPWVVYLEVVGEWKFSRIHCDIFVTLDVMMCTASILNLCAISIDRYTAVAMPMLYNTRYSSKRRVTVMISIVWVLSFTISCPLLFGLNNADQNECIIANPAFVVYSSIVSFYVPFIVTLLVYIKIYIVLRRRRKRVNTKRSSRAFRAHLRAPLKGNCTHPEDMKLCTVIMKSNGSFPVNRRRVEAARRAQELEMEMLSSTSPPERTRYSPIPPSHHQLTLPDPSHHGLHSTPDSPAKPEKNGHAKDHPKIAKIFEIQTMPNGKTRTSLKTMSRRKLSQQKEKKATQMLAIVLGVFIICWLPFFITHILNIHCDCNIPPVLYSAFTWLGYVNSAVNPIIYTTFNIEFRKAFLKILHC
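PathHunter D2 cells, attached overnight at 37 deg C, received compound in DMSO plus dopamine at EC20 (50 nM final) for 90 min at 37 deg C. Beta-arrestin recruitment was read as luminescence after 1 h with detection reagent at ambient temperature.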
* = called active by the depositor; ? = inconclusive; · = not tested or not shown; & = joins results of further samples. An unsorted share of the library (roughly 0.95% active in at least one column).

#	mol	TRPML1 agonist	TRPML1 inh	CtBP-E1A inh	TRPV1 potentiator	Six1-Eya2 blk	D2 PAM
1	COc1ccc(/C=C/c2c(-c3ccccc3OC)sc3ccccc23)cc1OC	2.0	3	12	·	13	-1
2	COc1ccc(OC)c(CCNC(=O)C(C)n2nc(C)c3c(C)n(-c4ccc(C)cc4)nc3c2=O)c1 (stereo unspecified)	0.3&-0.2	20&-5	·	2	-3	0
3	O=C1NC(=O)/C(=C\c2ccc(Sc3ccc(Cl)cc3)o2)N1	-0.5	-5	9	7	-2	-1
4	CCOc1cc(-c2noc(N)c2C(=O)OC)cc(OCC)c1OCC	-0.4	-27	-22	1	1	17
5	O=C(Cc1cccs1)NNC(=S)NC(=O)c1ccccc1	0.5	24	4	3	0	-10
6	CC1=C(C(=O)OCc2ccccc2)C(/C=C/c2ccccc2)NC(=S)N1 (stereo unspecified)	3.8	13	1	9	-9	-28
7	N=C(N)SCc1cn(-c2ccccc2)nc1-c1ccc(Br)cc1	2.4	-10	-5	-1	18	-37
8	O=C(Nc1ccc(Oc2cccnc2)cc1)C1CCN(Cc2ccccc2F)CC1	1.8	-21	-1	-11	2	-14
9	CCN(C(=O)COC(=O)c1oc2ccc(OC)cc2c1C)C1CCS(=O)(=O)C1 (stereo unspecified)	-0.4	-6	7	?	-18	-19
10	CC(C)(C)N1C(=O)[C@H]2[C@@H](c3ccc(Br)cc3)N3C(=O)N(c4ccccc4)C(=O)[C@@]3(Cc3ccccc3)[C@H]2C1=O	0.1	-4	-3	11	-2	-13
11	CC(C)CNC(=O)c1ccccc1NC(=O)CCSc1ccccc1	0.2	4	12	-26	11	4
12	CCCn1c2ccccc2c2nnc(SCCN3CCOCC3)nc21	-0.9	13	-4	-16	-3	4
13	CCn1nc(C(=O)NCCc2ccc(S(N)(=O)=O)cc2)c2ccccc2c1=O	-0.1	-15	-13	28	-3	-1
14	CC(C)c1ccc(NC2CCCN(C(=O)c3cnn(C(C)C)c3)C2)cc1 (stereo unspecified)	1.8	24	-2	-5	0	0
15	CCSc1cc(N2CCCC2)nc(-c2ccccc2Cl)n1	-0.1	-7	-3	-4	0	-12
16	CCN(Cc1ccccc1)C(=O)COC(=O)Cn1cnc2ccccc21	-0.4	11	-14	-1	20	0
17	CCOC(=O)C(=Cc1c[nH]c2ccc(S(=O)(=O)N(C)C)cc12)C(=O)OCC	-0.4	-9	1	2	1	0
18	Nc1cc(N)nc(SCC(=O)c2ccccc2)n1	1.7	22	-9	11	-3	5
19	C/C(=N/NC(=O)Nc1ccccc1)c1ccc(C)cc1	1.2	37	19	-2	13	-16
20	CCNc1nc(NCC)nc(N(C#N)C(C)C)n1	1.1	-3	9	-13	7	-2
21	COc1ccccc1OCCNC(=O)CCC(=O)N1CCOCC1	-0.5	-5	0	-8	0	-27
22	CN(C)/C=N/c1cc(=O)n(Cc2ccccc2)c(=O)n1C	-0.3	7	5	22	4	-6
23	COc1ccc(C(=O)N/C(=C\c2ccco2)C(=O)NCc2ccco2)cc1	-0.2	32	-2	-1	0	-13
24	COC(=O)CC(NC(=O)C1CC1)c1ccc2c(c1)OCO2 (stereo unspecified)	0.4	1	-2	21	7	-10
25	NS(=O)(=O)c1ccc(OC(=O)CNC(=O)OCc2ccccc2)cc1	-0.4	4	-3	·	-2	-5
26	Cc1ccc(NC(=O)CSc2nnc(CNC(=O)c3ccccc3F)o2)cc1	-0.4	39	0	-4	1	2
27	Cc1ccnc(NC(=O)CCC(=O)N(CC(=O)NCCc2ccccc2)Cc2ccco2)c1	0.8	-18	-1	1	0	-7
28	Cc1cccc(N2C(=O)CC(N3CCN(c4cccc(C(F)(F)F)c4)CC3)C2=O)c1 (stereo unspecified)	-0.6	-6	3	-8	6	-6
29	CCCC(=O)NC(=S)Nc1cc(-c2nc3ncccc3o2)ccc1C	2.5	18	6	5	3	-6
30	COc1nnc(-c2ccc(C)c(S(=O)(=O)NC(C)(C)CO)c2)c2ccccc12	0.0	18	5	-1	?	-24
31	COc1ccc(CCn2c(C)cc(C(=O)CSc3nnc(N)s3)c2C)cc1	2.9	2	-22	-14	-29	14
32	Clc1ccc2noc(-c3ccccc3)c2c1	0.3	-2	15	-3	6	3
33	COC(=O)N/N=C(C)\C=C\c1ccco1	0.5	-1	·	16	8	-9
34	C=CCNC(=O)NS(=O)(=O)c1ccc(C)cc1	0.0	-5	-1	1	6	-21
35	O=C(NC(=O)c1ccccc1)OCC(F)(F)F	-0.4	4	6	14	1	11
36	O=C(Nc1cc(Cl)ccc1-n1cncn1)c1cn2ccccc2n1	2.3	41	0	-10	6	2

Results in D2 PAM and TRPML1 agonist, for 2 of the compounds above:
#	Structure	D2 PAM	TRPML1 agonist
30	COc1nnc(-c2ccc(C)c(S(=O)(=O)NC(C)(C)CO)c2)c2ccccc12	-24	0.0
36	O=C(Nc1cc(Cl)ccc1-n1cncn1)c1cn2ccccc2n1	2	2.3

Next section.
#	mol	TRPML1 agonist	TRPML1 inh	CtBP-E1A inh	TRPV1 potentiator	Six1-Eya2 blk	D2 PAM
37	Cc1ccccc1CN1C(=O)C2(OCCCO2)c2ccccc21	2.2	0	11	-10	4	-5
38	Cc1ccc(O)c(NC(=O)c2cc(-c3ccco3)on2)c1	0.8	6	0	3	-1	10
39	O=C(OCC(=O)N1CCN(S(=O)(=O)c2ccc(Cl)cc2)CC1)c1cccc(OC(F)F)c1	-0.3	13	6	-2	7	3
40	O=C(COC(=O)Cc1ccc(Cl)cc1)Nc1cc(S(=O)(=O)N2CCOCC2)ccc1N1CCCC1	3.8	-7	-4	8	-13	5
41	O=C(NCCc1csc(-c2cccnc2)n1)c1ccccc1Br	1.2	-12	-1	5	2	-3
42	C#CCOCCOCCOCCNc1nc(N2CCN(C(=O)[C@H](CCC(=O)O)n3cc(CN)nn3)CC2)nc(N2CCN(C(=O)[C@H](CCCN=C(N)N)n3cc(C(N)[C@@H](C)CC)nn3)CC2)n1 (stereo partly specified)	0.3	-15	-5	·	-21	·
43	Cc1ccccc1S(=O)(=O)Cc1ccc(C(=O)O)o1	1.0	5	9	13	2	-1
44	COc1ccc(N2CCN(C(=O)C(OC(C)=O)c3ccccc3)CC2)cc1 (stereo unspecified)	0.3	-9	-7	-3	-4	-1
45	CC(=O)Nc1ccc(OCC(=O)NCc2ccccc2)cc1	0.5	-1	-16	1	7	0
46	O=C1S/C(=C\C=C\c2ccco2)C(=O)N1c1ccc(O)cc1	0.5	4	-20	18	-23	9
47	CC(=O)NC1(c2ccc(F)cc2)CCN(C(=O)Nc2ccc(F)cc2F)CC1	0.3	-12	6	-3	-2	1
48	C=CCn1c(SC/C=C/c2ccccc2)nnc1-c1sc(N)nc1C	1.7	-13	25	21	17	0
49	O=C(CNC(=O)c1ccccc1F)N/N=C\C=C\c1ccccc1	0.2	-7	0	26	3	-3
50	COc1ccc(-c2[nH]ncc2-c2ccc3c(c2)OCCO3)c(O)c1	1.9	22	-6	15	-10	-9
51	CC(=O)/C(N=Nc1ccc2c(c1)OCCO2)=C(\C)O	1.0	10	·	-11	-6	-10
52	Cc1ccccc1NC(=O)Cc1nnc(SCC(=O)c2ccc(Br)cc2)n1C	-0.4	-4	-2	-3	-1	-9
53	CN(c1ccccc1)c1ccc(/C=N/N2CCOCC2)cc1	0.4	-13	?	-22	?	-3
54	CC(=O)c1cccc(NC(=O)C2CCN(S(=O)(=O)c3ccc(C)cc3)CC2)c1	0.7	1	-3	-42	3	-4
55	Cn1c(=O)cc(C(=O)N/N=C/c2ccc(Cl)cc2)[nH]c1=O	-0.8	-8	-20	10	-4	5
56	OCCC1CN(Cc2cnn(-c3ccccc3Cl)c2)CCN1Cc1ccsc1 (stereo unspecified)	-0.3	1	2	5	-8	-8
57	NS(=O)(=O)c1ccc(CNC(=O)c2sccc2-c2ccccc2)cc1	-0.1	40	-1	6	1	5
58	Cc1ccc(C(=O)NNC(=O)Cc2ccccc2)cc1	0.4	3	3	-11	0	-10
59	Cc1ccccc1OCC(O)CN1C(=O)c2ccccc2C1=O (stereo unspecified)	1.6	7	·	-16	-4	-1
60	O=C(CCc1nnc2ccc(NCc3ccccc3)nn12)NC1CCCCC1	-0.4	23	-3	5	0	-6
61	NC(=O)c1c(N)[nH]c(C(=O)c2ccccc2)c1-c1ccccc1Br	-0.5	·	-3	·	-6	·
62	O=C(COCc1cc(-c2ccc3c(c2)OCO3)on1)N1CCN(c2ccccc2)CC1	-0.7&2.8	12&2	?	3	-22	-25
63	COc1ccccc1N1CCN(C(=O)CCC(=O)N2CCN(c3ccccc3OC)CC2)CC1	·	·	·	7	-16	4
64	O=C(CN1CCN(S(=O)(=O)c2ccccc2)CC1)N1CCc2ccccc21	-0.6	-6	·	1	0	-4
65	Cn1c(Oc2ccc3c(c2)OCO3)nc2c1c(=O)n(Cc1ccccc1)c(=O)n2C	-0.1	-9	-8	5	0	-3
66	CC(CCc1ccccc1)NC(=O)CCNC(=O)Cn1ccc2ccccc2c1=O (stereo unspecified)	-0.1	0	11	-4	1	-4
67	CCN(CC)C(=O)C(=O)N/N=C/c1cccs1	-0.3	2	-3	9	-4	-6
68	Cc1[nH]ccc2c1[nH]c1cc(=O)ccc12	2.0	11	-12	13	-20	-3
69	OCC[C@@H]1NCc2cc(CO)cc(-c3ccccc3)c21	0.3	-9	1	·	2	·
70	O=C(O)c1ccc2c(c1)C(=O)N(C(Cc1ccc(O)cc1)C(=O)O)C2=O (stereo unspecified)	-1.0	17	7	-2	6	-6
71	O=C(N/N=C/c1cccc([N+](=O)[O-])c1)c1ccc2nc[nH]c2c1	1.5	3	-13	13	-8	-18

In the list so far, these have an aryl thioether with sulfur outside any ring.
#	mol	TRPML1 agonist	TRPML1 inh	CtBP-E1A inh	TRPV1 potentiator	Six1-Eya2 blk	D2 PAM
3	O=C1NC(=O)/C(=C\c2ccc(Sc3ccc(Cl)cc3)o2)N1	-0.5	-5	9	7	-2	-1
11	CC(C)CNC(=O)c1ccccc1NC(=O)CCSc1ccccc1	0.2	4	12	-26	11	4
12	CCCn1c2ccccc2c2nnc(SCCN3CCOCC3)nc21	-0.9	13	-4	-16	-3	4
15	CCSc1cc(N2CCCC2)nc(-c2ccccc2Cl)n1	-0.1	-7	-3	-4	0	-12
18	Nc1cc(N)nc(SCC(=O)c2ccccc2)n1	1.7	22	-9	11	-3	5
26	Cc1ccc(NC(=O)CSc2nnc(CNC(=O)c3ccccc3F)o2)cc1	-0.4	39	0	-4	1	2
31	COc1ccc(CCn2c(C)cc(C(=O)CSc3nnc(N)s3)c2C)cc1	2.9	2	-22	-14	-29	14
48	C=CCn1c(SC/C=C/c2ccccc2)nnc1-c1sc(N)nc1C	1.7	-13	25	21	17	0
52	Cc1ccccc1NC(=O)Cc1nnc(SCC(=O)c2ccc(Br)cc2)n1C	-0.4	-4	-2	-3	-1	-9
